# B2AR ag: beta2AR agonists driving receptor internalization, primary screen, cell-based, FAP fluorogen, flow cytometry. Am2.2-beta2AR cells; reference of the scale not given here. Beta-2 adrenergic receptor (Homo sapiens), P07550. 340,000 compounds, 0.43% hits. response, % (no concentration beside the values);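 active = response above a set limit, near 3 SD of response in nonfluorescent compounds, cut at about 42% in these data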;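 also: stock transfer was 100 nL into about 11 µL; a reference agonist was the positive control; negative values mostly stem from fluorescent compounds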
# ALR inh: inhibitors of human ALR sulfhydryl oxidase, primary screen, biochemical, H2O2 detection, HRP-luminol luminescence, single point. FAD-linked sulfhydryl oxidase ALR (Homo sapiens), P55789. purified ALR, DTT oxidation. inhibition, % (no concentration beside the values). 290,000 compounds, 3.8% hits;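 active = mean and each replicate at 75% or more; inconclusive = only one of the two met; inactive = neither met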;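 also: stock transfer was 7.5 nL into about 7.5 µL; 0% = neutral wells and 100% = wells with inactivated enzyme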
# Beta apoptosis: inhibitors of cytokine-induced beta cell apoptosis, primary screen, luminescence | 300,000 compounds, 0.8% hits | INS-1E cytokine-induced death, ATP luminescence, 48 h; percent of positive-control rescue, neutral wells zero | AID 435005, 2010 | protection from apoptosis, % (test concentration not listed);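 active = all replicates at 75% or more, or half of them and the mean; inconclusive = half reach 75% but not the mean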;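 also: 0% = cytokine-treated negative control wells and 100% = positive control rescue; higher means more ATP so stronger rescue from cytokine killing; wells of about 40 µL received 100 nL stock; the first replicate is given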
# T cruzi inh: inhibitors of intracellular T. cruzi growth, primary screen, luminescence, NIH3T3 host cells | AID 1885, 2009 | 300,000 compounds, 1.4% hits | T. cruzi beta-gal in NIH3T3, 90 h | inhibition, % (concentration not given with the values);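 active = mean inhibition across valid replicates above about 55%, limit read from the data; inconclusive = mean below that limit but half or more replicates reach it; inactive = mean below it, under half of replicates reach it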;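 also: signal also drops with host cell toxicity which is not excluded here; 0% = plate median of DMSO wells and 100% = zero luminescence signal; higher percent means less beta-gal luminescence so fewer parasites; stock transfer was 50 nL into about 50 µL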
# LANA-H2B inh: blockers of LANA interaction with H2A/H2B – biochemical, FP readout, HTS, primary screen; cell-free LANA-H2A/H2B peptide, fluorescence polarization; inhibition, % (test concentration not listed); 320,000 compounds, 0.6% hits; AID 2629, 2010; in the data active = inhibition mostly above about 10%, no sharp cut-off; inactive = mostly below about 6.7%;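 also: stock transfer was 7.5 nL into about 10 µL; 0% = median of vehicle wells and 100% = median of positive control wells; one replicate is shown; the record names a cut of 25% in any replicate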
# Target sequence (Q9QR71 whole entry, looked up): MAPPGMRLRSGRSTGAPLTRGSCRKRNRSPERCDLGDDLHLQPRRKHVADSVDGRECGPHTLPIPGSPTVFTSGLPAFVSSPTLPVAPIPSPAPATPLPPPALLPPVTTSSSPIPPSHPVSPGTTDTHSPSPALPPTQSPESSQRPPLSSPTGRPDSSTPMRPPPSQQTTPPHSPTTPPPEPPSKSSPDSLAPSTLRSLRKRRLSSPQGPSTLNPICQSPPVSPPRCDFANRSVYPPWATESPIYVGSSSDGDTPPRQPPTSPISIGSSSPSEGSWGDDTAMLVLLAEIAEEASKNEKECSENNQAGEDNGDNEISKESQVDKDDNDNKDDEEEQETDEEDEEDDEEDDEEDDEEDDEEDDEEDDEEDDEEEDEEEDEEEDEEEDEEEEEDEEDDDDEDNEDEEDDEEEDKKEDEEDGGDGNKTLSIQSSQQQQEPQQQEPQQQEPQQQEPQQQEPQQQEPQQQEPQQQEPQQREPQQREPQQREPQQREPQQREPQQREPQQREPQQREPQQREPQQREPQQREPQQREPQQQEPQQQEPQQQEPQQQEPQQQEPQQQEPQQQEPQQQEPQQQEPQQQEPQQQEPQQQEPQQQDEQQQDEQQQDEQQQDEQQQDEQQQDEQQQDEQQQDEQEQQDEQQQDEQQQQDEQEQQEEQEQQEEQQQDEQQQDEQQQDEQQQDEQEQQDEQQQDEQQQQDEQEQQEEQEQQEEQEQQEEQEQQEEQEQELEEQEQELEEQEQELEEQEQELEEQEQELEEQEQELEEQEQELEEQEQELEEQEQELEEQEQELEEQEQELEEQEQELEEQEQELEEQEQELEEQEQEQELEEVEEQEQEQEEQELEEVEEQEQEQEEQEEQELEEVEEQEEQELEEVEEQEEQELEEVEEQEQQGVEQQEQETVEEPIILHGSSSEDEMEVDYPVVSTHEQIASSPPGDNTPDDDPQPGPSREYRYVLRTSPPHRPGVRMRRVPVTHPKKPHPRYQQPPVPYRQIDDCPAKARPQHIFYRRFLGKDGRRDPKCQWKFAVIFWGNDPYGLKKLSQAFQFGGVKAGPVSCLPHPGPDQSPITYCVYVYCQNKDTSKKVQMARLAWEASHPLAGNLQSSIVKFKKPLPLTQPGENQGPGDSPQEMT
# A1 inh: caspase 3/7 activation in MEF A1-2A-BIM cells, primary screen, A1 inhibitor project, cell-based, luminescence, HTS; Caspase-Glo 3/7 luminescence, 3 h; percent of clofoctol response, vehicle zero; caspase activation, % (test concentration not listed); 330,000 compounds, 0.066% hits; AID 2462, 2010;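 active = over half of replicate activation scores above 10%, or exactly half above 10 with the replicate mean above 10; inconclusive = replicate mean below 10 yet half the replicates above 10; inactive = over half of replicates below 10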;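 also: wells of about 30 µL received 50 nL stock; many hits fall short of the cut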
# rRNA inh HTS: reduced GFP signal of wild-type E. coli, primary screen, bacterial rRNA inhibitor project, GFP/RFP fluorescence, OD600, single point. E. coli WT GFP vs humanized-ribosome RFP mutants, 24 h; hits give low values; DMSO median 0, no signal -100. 350,000 compounds, 1.6% hits. GFP signal change (wild-type ribosome), % (concentration not given with the values);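 active = significant combined selectivity score with lowered wild-type GFP, culture density cut under 30%, mutant RFP and density less affected; inactive = any of these conditions unmet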; also: one replicate is shown; some compounds called inactive have numbers as strong as hits
# Calb FLC: C. albicans growth inhibition with fluconazole, primary screen, CaCi-2 strain, Alamar Blue fluorescence | C. albicans CaCi-2 (fluconazole-resistant clinical isolate) + fluconazole, 48 h | growth inhibition, % (no concentration beside the values) | 300,000 compounds, 0.57% hits | AID 1979, 2009;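 active = most replicates above 75%; inconclusive = exactly half above 75%; inactive = most below 75%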;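 also: all wells also contain fluconazole at 8 µg/ml as a sub-toxic cotreatment; 0% = median of DMSO wells and 100% = median of geldanamycin control wells; wells of about 8 µL received 7.5 nL stock; the first replicate is given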
# rRNA inh HTS OD600: recorded beside rRNA inh HTS, whose call it bears; OD600 change, %; measured here: OD600 growth;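 optical density of the mix in the first replicate; 0 = DMSO median and -100 = no signal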
# rRNA inh HTS RFP: also measured in rRNA inh HTS; calls as there; RFP signal change, %; measured here: RFP humanized mutant strains;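 first replicate; 0 = DMSO median and -100 = no signal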
# * marks the source's active call; other numbers are inactive results; i = inactive; u = inconclusive; x = not tested or not shown. Only part of the results is shown. The share of hits here may be higher or lower than overall.
# Preview:
1) O=C(NC(=S)N1CCN(c2ccc([N+](=O)[O-])cc2)CC1)c1ccco1
2) O=C(c1cccs1)N(Cc1cccc(F)c1)C1CCS(=O)(=O)C1 (centres undefined)
3) Cc1nnc(NC(=O)CSc2nnc(NC(=O)C(C)(C)C)s2)s1
4) CCN(CC)CC(=O)Nc1c(C#N)cnn1-c1ccccc1
5) CC(C)(C)CC(=O)Nc1cc(S(=O)(=O)N2CCOCC2)ccc1N1CCCC1
compound no.	1	2	3	4	5
B2AR ag	-3	-8	-18	-12	7
ALR inh	-5	2	0	-18	-3
Beta apoptosis	4	-9	-6	-1	-11
T cruzi inh	-39	-6	-5	-10	-8
LANA-H2B inh	-1.3	0.5	2.6	-7.4	-3.8
A1 inh	-0.2	0.7	1.3	-1.1	-0.5
rRNA inh HTS	9	8	14	9	x
rRNA inh HTS OD600	14	7	8	9	x
rRNA inh HTS RFP	1.1	-0.1	1.0	-2.2	x
Calb FLC	-13	-3	-13	-2	-8

# Main list, from the first entry:
1) O=C(NC(=S)N1CCN(c2ccc([N+](=O)[O-])cc2)CC1)c1ccco1
2) O=C(c1cccs1)N(Cc1cccc(F)c1)C1CCS(=O)(=O)C1 (centres undefined)
3) Cc1nnc(NC(=O)CSc2nnc(NC(=O)C(C)(C)C)s2)s1
4) CCN(CC)CC(=O)Nc1c(C#N)cnn1-c1ccccc1
5) CC(C)(C)CC(=O)Nc1cc(S(=O)(=O)N2CCOCC2)ccc1N1CCCC1
6) CCc1ccc(C(=O)COC(=O)c2ccco2)cc1
compound no.	1	2	3	4	5	6
B2AR ag	-3	-8	-18	-12	7	1
ALR inh	-5	2	0	-18	-3	0
Beta apoptosis	4	-9	-6	-1	-11	-3
T cruzi inh	-39	-6	-5	-10	-8	-22
LANA-H2B inh	-1.3	0.5	2.6	-7.4	-3.8	3.0
A1 inh	-0.2	0.7	1.3	-1.1	-0.5	-0.3
rRNA inh HTS	9	8	14	9	x	-3
rRNA inh HTS OD600	14	7	8	9	x	-18
rRNA inh HTS RFP	1.1	-0.1	1.0	-2.2	x	1.5
Calb FLC	-13	-3	-13	-2	-8	-1

7) Cc1ccc(NC(=O)C2CCN(S(=O)(=O)c3cccc4nonc34)CC2)nc1
8) O=C(N/N=C/c1ccsc1)c1ccc2c(c1)OCO2
9) O=C(NCCN1C(=O)S/C(=C\c2ccccc2)C1=O)c1cc(S(=O)(=O)N2CCOCC2)c(Cl)cc1Cl
10) CCOc1ccc2[nH]c(=O)c(CN(Cc3cccnc3)C(=O)Nc3ccccc3OC)cc2c1
11) Nc1nc(SCc2ccc(Cl)cc2)[nH]c(=O)c1-c1ccccc1
12) O=C1C(Nc2cccc(O)c2)=C(N2CCCCC2)C(=O)c2ccccc21
compound no.	7	8	9	10	11	12
B2AR ag	5	-2	-2	-3	-4	-8
ALR inh	4	-11	-8	x	-1	10
Beta apoptosis	0	-8	1	1	0	x
T cruzi inh	-2	x	26	21	4	-14
LANA-H2B inh	-0.1	0.0	-6.0	-4.0	3.1	-2.8
A1 inh	0.5	-1.4	0.2	0.5	-1.2	-2.8
rRNA inh HTS	x	8	x	x	x	x
rRNA inh HTS OD600	x	10	x	x	x	x
rRNA inh HTS RFP	x	-4.4	x	x	x	x
Calb FLC	5	x	-16	-9	2	2

13) CC(=O)c1cc(F)c(N2CCN(C(=O)c3ccco3)CC2)cc1C
14) C=C(C)CNC(=S)NN=C1c2ccccc2-c2ccccc21
15) CCc1noc(C)c1C(=O)OCC(=O)NC(=O)c1ccccc1
16) O=C(CSc1nnc(-c2ccncc2)n1C1CCCCC1)Nc1ccccc1
17) Cc1ccc(NC(=O)CCC(=O)N/N=C/c2coc3ccc(F)cc3c2=O)cc1
18) COC(=O)c1c(NC(=S)Nc2cc(OC)c(Cl)cc2OC)sc2c1CCCCC2
compound no.	13	14	15	16	17	18
B2AR ag	-10	5	6	-2	4	3
ALR inh	x	1	-9	16	x	-5
Beta apoptosis	0	7	x	0	-5	-1
T cruzi inh	4	0	-12	4	-10	12
LANA-H2B inh	-2.8	i	4.1	3.8	3.6	-5.3
A1 inh	-0.2	0.1	-0.6	0.4	0.7	-0.5
rRNA inh HTS	x	x	16	x	7	x
rRNA inh HTS OD600	x	x	15	x	1	x
rRNA inh HTS RFP	x	x	2.2	x	-2.0	x
Calb FLC	2	-17	2	2	5	-6

19) O=C(Nc1cccc(-c2cn3ccccc3n2)c1)c1ccccc1
20) CC1=NCCN1S(=O)(=O)c1cc(Cl)ccc1Cl
21) CC1CN(Cc2cc(=O)[nH]c(C(C)C)n2)CC(C)O1 (centres undefined)
22) COc1cc(/C=N/NC(=O)c2ccncc2)ccc1OC(=O)c1ccco1
23) Cc1ccc(C(=O)NCC(=O)NCC(=O)OCC(=O)c2ccc(Br)cc2)cc1
24) CN1CCN(c2nc3ccccn3c(=O)c2/C=C(\C#N)S(=O)(=O)c2ccc(Cl)cc2)CC1
compound no.	19	20	21	22	23	24
B2AR ag	2	9	0	1	5	3
ALR inh	95*	-19	x	2	-5	0
Beta apoptosis	10	x	-14	-5	-7	-4
T cruzi inh	-9	8	3	-15	-11	11
LANA-H2B inh	-5.2	-0.8	0.5	3.2	-11	-0.3
A1 inh	-1.3	1.3	0.3	0.4	-0.2	1.0
rRNA inh HTS	-32*	x	x	-1	x	3
rRNA inh HTS OD600	-7.4*	x	x	-6	x	8
rRNA inh HTS RFP	-3.1*	x	x	3.9	x	13
Calb FLC	23	-2	-20	u	-4	-3

25) CC(=O)N1CCN(c2ccc(Oc3ncnc4sccc34)cc2)CC1
26) CCOC(=O)CC(=O)CSc1ncnc2c1cnn2-c1ccccc1
27) CC(C)(C)C(=O)N1CCN(c2ccc([N+](=O)[O-])c(NCC3CCCO3)c2)CC1 (centres undefined)
28) C=CCn1c(C(O)c2ccccc2)nc2ccccc21 (centres undefined)
29) CC(=O)c1cccc(NC(=S)NNC(=O)c2ccco2)c1
30) O=C(NCc1ccncc1)C(=O)NCC(c1ccco1)N1CCN(c2ccc(F)cc2)CC1 (centres undefined)
compound no.	25	26	27	28	29	30
B2AR ag	2	6	-3	4	2	17
ALR inh	x	7	1	-16	53	94*
Beta apoptosis	-8	5	0	-4	2	3
T cruzi inh	-10	-10	10	-4	-1	-11
LANA-H2B inh	-2.8	5.0	3.9	1.5	1.5	2.9
A1 inh	0.4	-3.3	1.5	0.2	-0.7	-0.4
rRNA inh HTS	x	x	-38*	3	-1	x
rRNA inh HTS OD600	x	x	-27*	6	-7	x
rRNA inh HTS RFP	x	x	-3.8*	-1.4	1.8	x
Calb FLC	2	2	23	-5	-6	-9

# Rewritten field by field: three of the compounds above.
25) CC(=O)N1CCN(c2ccc(Oc3ncnc4sccc34)cc2)CC1
  B2AR ag = 2	ALR inh = x	Beta apoptosis = -8	T cruzi inh = -10	LANA-H2B inh = -2.8	A1 inh = 0.4	rRNA inh HTS = x	rRNA inh HTS OD600 = x	rRNA inh HTS RFP = x	Calb FLC = 2
27) CC(C)(C)C(=O)N1CCN(c2ccc([N+](=O)[O-])c(NCC3CCCO3)c2)CC1 (centres undefined)
  B2AR ag = -3	ALR inh = 1	Beta apoptosis = 0	T cruzi inh = 10	LANA-H2B inh = 3.9	A1 inh = 1.5	rRNA inh HTS = -38*	rRNA inh HTS OD600 = -27*	rRNA inh HTS RFP = -3.8*	Calb FLC = 23
28) C=CCn1c(C(O)c2ccccc2)nc2ccccc21 (centres undefined)
  B2AR ag = 4	ALR inh = -16	Beta apoptosis = -4	T cruzi inh = -4	LANA-H2B inh = 1.5	A1 inh = 0.2	rRNA inh HTS = 3	rRNA inh HTS OD600 = 6	rRNA inh HTS RFP = -1.4	Calb FLC = -5

# Next part.
31) CCOCc1cnc(C)nc1NCC(=O)c1c(C)[nH]c2ccc(OC)cc12
32) COc1ccc(S(=O)(=O)N2CCCCC2)cc1NC(=O)c1ccc(Cl)nc1
33) O=C(O)CC(CC(=O)Nc1ccc(F)c(Cl)c1)c1ccc(Cl)cc1Cl (centres undefined)
34) Cc1ccc(-c2cc(C(F)(F)F)n3nc(C(=O)N4CCN5CCCC5C4)cc3n2)cc1 (centres undefined)
35) O=C(NC(=S)Nc1cccc2c(O)cccc12)c1cccc(Br)c1
36) CCOCCCNC(=O)CN1C(=O)c2cccc3cccc1c23
compound no.	31	32	33	34	35	36
B2AR ag	-5	-3	-7	5	4	3
ALR inh	-7	-5	2	4	-42	0
Beta apoptosis	x	3	2	1	-1	-2
T cruzi inh	-19	x	-3	1	-15	-9
LANA-H2B inh	5.2	0.0	4.2	1.2	-1.1	-1.8
A1 inh	-0.5	0.0	0.4	0.3	0.4	0.1
rRNA inh HTS	x	19	-36	-3	-57	2
rRNA inh HTS OD600	x	22	-40	-8	-80	4
rRNA inh HTS RFP	x	0.9	-5.2	0.4	-2.1	-3.6
Calb FLC	-5	x	0	10	34	-7

37) CSc1ccccc1C(=O)N1CCC(n2nccc2NC(=O)C(C)(C)C)CC1
38) COc1cc2cc(NC(C)=O)cc(NCc3ccccc3)c2cc1OC
39) CC(C)c1cc(C(=O)N/N=C/c2cccnc2)n[nH]1
40) O=C(/C=C/c1ccccc1[N+](=O)[O-])NCCc1ccc(F)cc1
41) Cc1ccc(OCCCCNC2CCCC(C)C2C)c(C)c1 (centres undefined)
42) CCn1cc(/C=C(\NC(=O)c2ccccc2F)C(=O)NCCCn2ccnc2)c2ccccc21
43) Cc1coc2cc3oc(=O)c(CCC(=O)NCCCN4CCOCC4)c(C)c3cc12
44) CCC1CCCCN1CCCNC(=O)CSc1nc2nc(C)c(Cc3ccc(C)cc3)c(C)n2n1 (centres undefined)
45) CN(Cc1ccc(C(C)(C)C)cc1)C(=O)C1CSC2(C)CCC(=O)N12 (centres undefined)
compound no.	37	38	39	40	41	42	43	44	45
B2AR ag	1	1	-8	-1	14	5	7	0	1
ALR inh	-15	53	-13	0	-3	10	x	-4	-2
Beta apoptosis	-4	2	-2	1	27	1	0	2	-3
T cruzi inh	-8	3	-13	7	57*	-5	-20	15	x
LANA-H2B inh	3.8	2.6	5.1	3.8	2.4	-2.2	0.8	-2.8	-3.0
A1 inh	0.0	1.2	1.1	0.1	0.1	-0.5	-0.6	-0.1	0.6
rRNA inh HTS	x	6	x	-34	-61	-1	x	8	1
rRNA inh HTS OD600	x	5	x	-33	-80	-3	x	16	3
rRNA inh HTS RFP	x	15	x	-2.9	-20	-1.7	x	3.1	-1.7
Calb FLC	-6	46	-3	-14	-1	35	-1	-5	x

# Source: PubChem BioAssay
